Screens: PubChem BioAssay, several laboratories
Yeast UUG start – alters start codon recognition fidelity in yeast | S. cerevisiae UUG-firefly luciferase reporter, luminescence/redox ratio | activity score, % at 18.7 µM | 350,000 compounds, 0.13% hits | AID 602363;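 active = replicate mean at a twofold rise or more, about +100% in these data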;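 note: firefly luciferase made from a UUG start codon reports start codon fidelity; reporter light over untreated wells divided by growth signal over untreated wells; some hits fall short of that in this replicate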
eIF4H FP inh – inhibitors of RNA binding by human eIF4H; Q15056; eIF4H fluorescence polarization binding assay; inhibition, % at 35 µM; 290,000 compounds, 0.94% hits;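 active = 50% or more with normal probe brightness, or confirmed in later tests; about a fifth of its hits are not listed in these tables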;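 note: calls also rest on retests at 20 µM and on dose response follow-up; 0% = protein and probe with vehicle and 100% = probe without protein; strong numbers were not always called active; many hits fall short of the cut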
Rce1 inh – inhibitors of yeast Ras-converting enzyme | Q03530 | yeast membranes, quenched prenylated peptide cleavage fluorescence | calls only | 290,000 compounds, 0.27% hits;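 active = fall in fluorescence gain of 50% or more versus controls, with final raw signal at or below 3038400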;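 note: plate controls were neutral control wells for no effect and wells lacking membranes for full effect; tested at 10 µM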
Target sequence (Q03530 whole entry, looked up): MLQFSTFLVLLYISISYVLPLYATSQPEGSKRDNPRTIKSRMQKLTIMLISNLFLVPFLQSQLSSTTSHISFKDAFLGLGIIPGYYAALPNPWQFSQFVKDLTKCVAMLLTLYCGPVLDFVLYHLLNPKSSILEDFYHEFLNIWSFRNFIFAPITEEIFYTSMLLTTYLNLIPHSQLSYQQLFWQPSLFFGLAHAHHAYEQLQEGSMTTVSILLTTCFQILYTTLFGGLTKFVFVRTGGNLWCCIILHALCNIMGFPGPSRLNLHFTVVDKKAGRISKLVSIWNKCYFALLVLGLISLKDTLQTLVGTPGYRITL
PABP polyA inh – PABP-poly(A) binding inhibition. P11940. PABP-poly(A) RNA binding, fluorescence polarization. inhibition, % at 35 µM. 290,000 compounds, 1% hits. AID 2014;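 active = 50% or more with normal probe brightness, or confirmed in later tests; about a fifth of its hits are not listed in these tables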;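 note: calls also rest on retests at 20 µM and on dose response follow-up; controls were probe without protein and protein plus probe with vehicle; some compounds called inactive have numbers as strong as hits; many hits fall short of the cut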
Target sequence (P11940 whole entry, looked up): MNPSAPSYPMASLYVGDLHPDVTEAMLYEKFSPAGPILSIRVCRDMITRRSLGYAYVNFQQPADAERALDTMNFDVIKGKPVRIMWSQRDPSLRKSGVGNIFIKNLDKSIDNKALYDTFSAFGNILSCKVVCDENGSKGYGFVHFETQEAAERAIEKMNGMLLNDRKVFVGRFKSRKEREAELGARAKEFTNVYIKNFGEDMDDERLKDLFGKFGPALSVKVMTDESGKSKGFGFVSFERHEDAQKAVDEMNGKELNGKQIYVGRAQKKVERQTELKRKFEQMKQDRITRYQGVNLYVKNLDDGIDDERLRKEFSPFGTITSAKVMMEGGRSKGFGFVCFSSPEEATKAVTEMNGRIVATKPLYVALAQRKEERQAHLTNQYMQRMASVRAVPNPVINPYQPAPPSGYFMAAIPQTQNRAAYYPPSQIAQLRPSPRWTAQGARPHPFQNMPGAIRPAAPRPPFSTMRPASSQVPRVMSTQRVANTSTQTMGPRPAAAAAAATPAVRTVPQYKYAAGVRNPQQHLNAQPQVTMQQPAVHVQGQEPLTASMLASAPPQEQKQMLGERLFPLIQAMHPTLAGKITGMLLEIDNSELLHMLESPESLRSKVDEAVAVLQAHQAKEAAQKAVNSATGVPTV
HIV Env fusion – inhibitors of HIV Env-mediated cell fusion; 360,000 compounds, 1.1% hits; inhibition, % at 12.3 µM; HeLa-JRFL Env/CEM21 cell fusion, luciferase;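 active = mean replicate inhibition score of at least 50 and every replicate individually at or above 50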;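 note: 0% = plate neutral controls and 100% = maraviroc near 300 nM; one replicate is shown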
CSC inhib – blocks cancer stem cells | 300,000 compounds, 1.1% hits | AID 2717 | cancer stem cell-like cells viability, luminescence | inhibition, % at 7.5 µM;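 active = mean at 75% or more and at least half the replicates too; tested in HMLE shEcad cells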;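 note: 0% = median of negative and 100% = median of positive control wells; the first replicate is given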
MT1-MMP act inh – inhibitors of human MT1-MMP activation | GFP/RFP ratio change, % at 20 µM | 360,000 compounds, 0.061% hits | P50281 | HT1080 RFP-PRO-GFP cells, GFP/RFP ratio fluorescence, overnight; percent of plate control window, DMSO zero | AID 651647;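 active = GFP/RFP ratio change of at least 30% with cell ATP level not reduced by more than half and red fluorescence within 50% of control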; note: strong numbers were not always called active
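Test system: HT1080 RFP-PRO-GFP cells; Benchmarks: DMSO and RFP-L50D-GFP cell wells; Timing: cells overnight before dosing, compound overnight, 37 °C, 5% CO2; Compound: one 20 µM compound dose with 1% DMSO; Read-out: GFP/RFP fluorescence ratio.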
eIF4H FP inh retest – also measured in eIF4H FP inh; calls as there; inhibition, %; compound at 20 µM; confirmation average;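 mean of two retest wells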
PABP polyA inh retest – recorded beside PABP polyA inh, whose call it bears; inhibition, %; compound at 20 µM; confirmation repeats;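 mean of two retest wells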
MT1-MMP act inh RFP – further read-out of MT1-MMP act inh, marked with its call; RFP signal change, %; measured here: RFP expression control read;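 0 = vehicle wells; hits needed this value within 50% of zero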
* hit, by the source's call; i = inactive; · = no result given; + = active, no number; & = joins results of further samples.

SMILES	Yeast UUG start	eIF4H FP inh	Rce1 inh	PABP polyA inh	HIV Env fusion	CSC inhib	MT1-MMP act inh	MT1-MMP act inh RFP	others
O=C(C[C@H]1CC[C@@H]2[C@H](COC[C@H](O)CN2Cc2cccc(C(F)(F)F)c2)O1)NCCc1ccccc1	-7	·	·	·	-35	·	4	-7
CC(C)CC1NC(=S)N(Cc2ccccc2)C1=O (stereo not drawn)	-6	-9	i	3	-20	22	-14	-6
COc1cc(N(C(C)=O)c2ccc(O)c(C(=O)O)c2)c2ncccc2c1	-13	·	·	·	15	·	10	10
Cc1cccc(N2CCN(Cc3nc(-c4cccc(Cl)c4)oc3C)CC2)n1	·	-5	i	8	10	1	-5	-3
CC(C)Oc1cccc(C(=O)NC(=S)Nc2cccc(NC(=O)c3ccccc3Cl)c2)c1	6	-2	i	1	8	13	-1	-6
CCOc1ccc(S(=O)(=O)N(CC)CC(=O)NCc2cccnc2)cc1	-10	1	i	17	-3	6	·	·
COc1ccc([C@H]2C(C(=O)O)=C[C@@H](C(C)(C)C)N2S(=O)(=O)c2ccc(C)cc2)cc1OC	6	·	·	·	29	·	-4	4
CCOC(=O)CSc1nnc(NC(=O)C2CC(=O)N(c3ccc(F)cc3)C2)s1 (stereo not drawn)	-2	8	i	-1	-14	-10	-7	-1
Cc1cccc(C)c1NC(=O)CN(C)C(=O)c1cccc(S(=O)(=O)N2CCN(c3ccccc3)CC2)c1	9	71	i	42*	-14	14	4	-9	eIF4H FP inh retest=45;PABP polyA inh retest=65*
Cc1ccc(C(=O)Nc2cccc(C(F)(F)F)c2)cc1NC(=O)c1nccn1C	-4&-3	-3	i	-7	4	-14	7&2	4&1
CC1CCCCN1C(=O)COC(=O)C1CCN(S(=O)(=O)c2c(Cl)cccc2Cl)CC1 (stereo not drawn)	-23	51	i	8	4	-2	-1	1	eIF4H FP inh retest=-9;PABP polyA inh retest=11
COc1ccc(C=NNC(=O)CCCCC(=O)NN=Cc2ccc(OC)cc2)cc1	1	·	·	·	8	·	3	-7
CN1CCN(c2ccccc2NC(=O)c2ccc(N3CCOCC3)c([N+](=O)[O-])c2)CC1	-12	-6	i	-3	4	2	-4	-3
O=C(Oc1coc(CSc2ncccn2)cc1=O)c1cccs1	·	-1	i	-1	11	-25	2	0
CCCCNC(=O)c1cccc(C(=O)NCCCC)c1	0	5	i	2	-47	-10	-1	3
COc1ccc(NC(=O)Nc2ccc3c(c2)C(=O)N([C@H](C)CO)C[C@H](C)[C@@H](CN(C)Cc2ccc(Cl)c(Cl)c2)OCCCC[C@@H](C)O3)cc1	8&5	·	·	·	6	·	2	-3
CCOC(=O)Cc1c(C)nc2c(-c3ccc(Cl)cc3)c(C)[nH]n2c1=O	-24	-11	i	-4	·	32	7	-1
Cc1ccc(OC(=O)c2cccnc2)cc1	-14	0	i	16	7	1	6	3
Cc1cc2c3c(c1C)C1(C(=O)N3C(C)(C)CC2C)C(C#N)=C(N)OC2=C1C(=O)CC(C)(C)C2 (stereo not drawn)	6	0	i	-7	10	-7	-2	-3
CN1CCN(S(=O)(=O)c2cccc(C(=O)N(Cc3nnc(-c4ccc(Cl)cc4)o3)C3CC3)c2)CC1	·	·	i	·	7	-5	0	-5
CCCn1c(SCC(=O)Nc2cccc(C)n2)nc2c1c(=O)n(C)c(=O)n2C	·	-6	i	0	32	-1	-4	-6
CCOc1ccc(NC(=O)CN(C2CCCCC2)S(C)(=O)=O)cc1	-8	-5	i	-4	16	-2	0	3
COc1ccc(N(CC(=O)NCc2ccco2)S(=O)(=O)c2ccccc2)cc1	·	3	i	0	6	1	1	5
Cc1cc2[nH]c(=O)c(=O)[nH]c2cc1S(=O)(=O)Nc1cccc(Cl)c1	-14	-2	i	6	21	-1	-1	3

Overlap with the part before: 2 compounds, then new ones.
SMILES	Yeast UUG start	eIF4H FP inh	Rce1 inh	PABP polyA inh	HIV Env fusion	CSC inhib	MT1-MMP act inh	MT1-MMP act inh RFP	others
COc1ccc(N(CC(=O)NCc2ccco2)S(=O)(=O)c2ccccc2)cc1	·	3	i	0	6	1	1	5
Cc1cc2[nH]c(=O)c(=O)[nH]c2cc1S(=O)(=O)Nc1cccc(Cl)c1	-14	-2	i	6	21	-1	-1	3
COc1ccc(-n2nc(C(=O)NCC(=O)NCc3cccc(F)c3)c3ccccc3c2=O)cc1Cl	-14	3	i	-2	3	-1	7	0
N=C1/C(=C\c2ccc(-c3cc(Cl)cc(Cl)c3)o2)C(=O)N=C2SC=C(c3ccccc3)N12	-12	35	i	-10	-26	33	8	3
CCCCC1=CC2=CC(=O)C(C)(OC(=O)CC)C(=O)C2=CN1Cc1ccc(OC)cc1 (stereo not drawn)	-15	28	i	25	0	13	-5	11
COc1cc(/C=N/NC(=O)c2sc3nc(C)cc(C)c3c2N)ccc1O	-1	-7	i	4	-22	15	1	2
O=C(NC1CCCCNC1=O)c1ccccc1 (stereo not drawn)	-1	-2	i	-5	1	-8	-1	-1
COc1cc2c3c(c1)C(C)=CC(C)(C)N3C(=O)C2=O	·	-1	i	1	-16	11	3	5
Cc1cc2ccccc2cc1CN1CCOCC1	-22	-4	i	2	-27	-22	4	0
C=CCc1ccc(OCCN2CCc3ccccc3C2)c(OC)c1	-1	8	i	-4	14	43	5	0
OC(COc1ccc2c(c1)OCO2)CN1CCCCC1 (stereo not drawn)	·	-1	i	-9	18	-13	-3	0
COc1ccc(/C=C/C(=O)Nc2nonc2NC(C)=O)cc1	·	-4	i	13	32	-5	6	-1
O=C1CCCN1CC(O)CS(=O)(=O)c1ccccc1 (stereo not drawn)	-23	-4	+	-9	3	-8	0	7
CN(Cc1ccccc1)c1nc(-c2ccc([N+](=O)[O-])cc2)nc2ccccc12	2	-8	i	-7	·	35	-3	-3

Pulled by compound from above (2):
SMILES	Yeast UUG start	eIF4H FP inh	Rce1 inh	PABP polyA inh	HIV Env fusion	CSC inhib	MT1-MMP act inh	MT1-MMP act inh RFP	others
COc1ccc(-n2nc(C(=O)NCC(=O)NCc3cccc(F)c3)c3ccccc3c2=O)cc1Cl	-14	3	i	-2	3	-1	7	0
N=C1/C(=C\c2ccc(-c3cc(Cl)cc(Cl)c3)o2)C(=O)N=C2SC=C(c3ccccc3)N12	-12	35	i	-10	-26	33	8	3

Carrying on:
SMILES	Yeast UUG start	eIF4H FP inh	Rce1 inh	PABP polyA inh	HIV Env fusion	CSC inhib	MT1-MMP act inh	MT1-MMP act inh RFP	others
O=C(CN1CCOCC1)Nc1ccc(N2CCN(c3ccccc3)CC2)c(F)c1	0	-12	i	17	17	-8	1	-2
O=C1CSC(c2ccccn2)N1c1ccc2ccccc2c1 (stereo not drawn)	·	0	i	-8	-30	9	-5	-10
Cc1cc(C)c(OCCCn2ccnc2)c(C)c1	4	-12	i	6	-27	-20	1	-9
CCC(C)NC(=O)c1ccc2c(SCC(=O)O)c3c(nc2c1)CCCC3 (stereo not drawn)	-10	1	i	13	3	-11	0	4
CC(C)NC(=S)N=Nc1c(O)[nH]c2ccc([N+](=O)[O-])cc12	·	15	i	9	-25	29	7	-4
CCOc1cc(C(c2c(C)[nH][nH]c2=O)c2c(C)[nH][nH]c2=O)ccc1O	-31	0	i	-5	1	-7	-2	-4
O=C(c1ccco1)N1CCN(Cc2nc3ccc([N+](=O)[O-])cc3c(=O)n2-c2ccccc2F)CC1	5	1	·	1	31	10	3	9
CCOC(=O)[C@H](CCc1ccccc1)N[C@H]1CCc2ccccc2N(CC(=O)O)C1=O	12	·	i	·	-3	-4	0	3
FC(F)(F)c1cc(CCN2C(=S)NC[C@@H]2Cc2ccccc2)cc(C(F)(F)F)c1	-16	-6	i	-7	13	65	1	-5
CN(C)c1ccc(/C=C(/NC(=O)c2ccccc2Cl)C(=O)NCCN2CCOCC2)cc1	-19	·	i	·	6	-10	·	·
Cc1ccc(NC(=O)c2cc(S(=O)(=O)N3CCCCC3)c[nH]2)cc1C	-13	0	i	0	-4	-14	0	-2
Cc1ccc(N(C(=O)C2CCC(=O)N2)C2(C(=O)NC3CCCC3)CCCCC2)cc1 (stereo not drawn)	1	-11	i	8	-14	-16	0	2
O=C(c1ccc2c(c1)OCO2)N1CCCC(c2ccccc2)C1 (stereo not drawn)	-19	-3	i	4	·	-8	7	-3
Cc1nc2c(OCc3ccc(C(F)(F)F)cc3)cccn2c1N(C)C(=O)CCC1CCCC1	-15	·	·	·	61*	·	2	-14
Cc1cccc2c(N=O)c(O)[nH]c12	-12	16	i	26	-95	27	-5	-1
CSc1nc2c(c(=O)[nH]1)C(c1cccc(Cl)c1)CC(=O)N2 (stereo not drawn)	·	-2	i	2	-13	-33	0	0
COc1ccc(C2NC(=O)N(CCCC(=O)O)C(C)=C2C(=O)OCc2ccccc2)cc1 (stereo not drawn)	·	·	i	·	-32	-18	·	·
COc1ccc(CNC(=O)c2ccc(Cl)c(S(=O)(=O)N3CCOCC3)c2)cc1OC	-13	·	·	·	·	-12	5	-29
CN1CCc2c(OCc3ccc(F)cc3)cccc2C1=O	·	-2	i	-18	14	5	-1	-5
Cc1ccc(NC(=O)CN2CCOCC2)cc1C	-15	3	i	2	-34	-14	0	3
COc1cccc2c1Oc1ncccc1N(C(=O)CCC(=O)NCc1cccc(C)c1)C2	3	-8	i	-4	-11	-6	2	2
CCOP(=O)(/C(C#N)=C(/O)c1ccccc1)c1ccccc1 (stereo not drawn)	·	-15	·	7	-12	-1	-1	3
Cc1onc(-c2c(Cl)cccc2Cl)c1C(=O)ONC(=O)c1ccccc1	·	3	i	3	-3	-1	0	-3
Cc1ccc(NC(=O)CCc2nc3sc4c(c3c(=O)[nH]2)CCCC4)nc1	·	·	i	·	·	-2	-10	4
CCCS(=O)(=O)N1CCN(CCCc2ccccc2)CC1	-23	-3	i	36	·	-3	1	0
CN(C(=O)COc1ccccc1C(=O)NCCOc1ccccc1)c1ccccc1	·	2	i	0	12	49	-17	-20
O=C(Cc1ccc(S(=O)(=O)N2CCOCC2)s1)NCCC(c1ccccc1)c1ccccc1	-10	21	i	14	-127	-3	0	-3
COc1ccc(OCCSc2nnc(Cc3cccc4ccccc34)n2N)cc1	-22	6	i	2	36	-6	4	-1
COCCCn1c(=O)c2ccccc2n(CC(=O)NCCC2=CCCCC2)c1=O	0	-14	i	-2	16	-2	-2	-3
CC(=O)c1ccc(N2CCN(C(=O)c3cc4c(-c5ccccc5F)nn(C)c4s3)CC2)cc1	-18	14	i	-3	66*	6	-2	-15
O=C(O)c1ccc(/C=N/NC(=O)c2ccc3c(c2)OCCO3)cc1	-10	-7	i	4	-1	17	-1	5
NS(=O)(=O)c1ccc(CCNC(=O)c2cc(-c3ccccc3)nc3ccccc23)cc1	-4	-10	i	3	-7	4	-3	-5
CCC1(c2ccccc2)NC(=O)N(CC(=O)NCCN2C(=O)S/C(=C\c3cccnc3)C2=O)C1=O (stereo not drawn)	-15	·	i	·	2	-9	-4	-3
O=C(COC(=O)c1ccc(S(=O)(=O)N2CCCC2)cc1)Nc1cccc(Br)c1	0	·	·	·	-11	-2	1	1
CC(=O)Oc1ccc(N2C(=O)C3C(C2=O)C2C=CC3C23CC3)cc1[N+](=O)[O-] (stereo not drawn)	-13	4	i	4	3	-2	0	-1
COc1ccc(-n2ncc3c2CC(C)(C)CC3NC(=O)CCn2nc(C)cc2C)cc1 (stereo not drawn)	10	0	i	-13	4	-4	-3	-3
CCc1cccc(C)c1N1C(=O)CC(C)(C)CC1=O	·	-7	i	6	-3	10	3	5
O=S(=O)(N1CCCCC1)N1CCN(c2ccc(F)cc2)CC1	-17	-9	i	-8	-27	1	2	-1
CCCOc1cccc(NC(=O)c2cc(C)oc2C)c1	-13	-1	i	5	·	19	0	-6

Some of the compounds tested; count on the stated rates, not on these rows.
